# MARV entry inh = inhibitors of Marburg virus binding or cell entry; AID 540276; Marburg virus pseudotyped entry inhibition, cell reporter; control for the full effect not named in the record; about a third of the inactives were read at about 46 µM; Potency, µM (titrated, usually from 37.8 µM), inactives show top-dose activity change, negative = inhibition, most hits filed as inhibitors; 1.8% of 300,000 active; active = well fitted inhibition curve with a large enough effect; inconclusive = small, poorly fitted or top-dose-only effect, or effect the other way; inactive = flat fitted curve, though single readings scatter; tested in HEK293 cells; about a fifth of its hits are not listed in these tables; further: on the % scale 0 is the no-effect control and ±100 the full control effect; luciferase read-out
# Lassa entry inh = inhibitors of Lassa virus binding or cell entry. Lassa virus pseudotype entry inhibition, cell reporter; control for the full effect not named in the record. Potency, µM (highest dose often 37.9 µM), without a hit: at the top dose activity change, negative = inhibition, usual class: inhibitors. 1.2% of 300,000 active; active means well fitted inhibition curve with a large enough effect; inconclusive means small, poorly fitted or top-dose-only effect, or effect the other way; inactive means flat fitted curve, though single readings scatter; tested in HEK293 cells; further: on the % scale 0 is the no-effect control and ±100 the full control effect; nearly all actives have a fitted effect of over 50% in size; luciferase read-out
# StopGo reporter = lowers the luciferase signal of an FMDV 2A StopGo reporter. human cells with a luciferase reporter of 2A StopGo recoding; control for the full effect not named in the record. Potency, µM (highest dose often 57.9 µM), for inactives: at the top dose signal change, negative = less light. 1.2% of 410,000 active. AID 1159524; active = well fitted falling curve with a large enough effect; inconclusive = small, poorly fitted or top-dose-only effect; inactive = no such curve, though single readings can be large or run the other way; tested in HEK293T cells; further: on the % scale 0 is the no-effect control and ±100 the full control effect; nearly all actives have a fitted effect of over 45% in size; luciferase light after 4 h
# Cruzain inh noDet = cruzain (T. cruzi) inhibition without detergent. P25779. 2.3% of 200,000 active. Potency, µM, for the others: max response, negative = inhibition, usual class: inhibitors. purified cruzain, Z-FR-AMC fluorescence, no detergent;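 further: plate controls were enzyme without inhibitor for no effect and buffer without enzyme for full effect; nearly all actives have a fitted effect of over 40% in size; top concentration of the series not given in the record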
# Target sequence (P25779 123-467 limits assumed): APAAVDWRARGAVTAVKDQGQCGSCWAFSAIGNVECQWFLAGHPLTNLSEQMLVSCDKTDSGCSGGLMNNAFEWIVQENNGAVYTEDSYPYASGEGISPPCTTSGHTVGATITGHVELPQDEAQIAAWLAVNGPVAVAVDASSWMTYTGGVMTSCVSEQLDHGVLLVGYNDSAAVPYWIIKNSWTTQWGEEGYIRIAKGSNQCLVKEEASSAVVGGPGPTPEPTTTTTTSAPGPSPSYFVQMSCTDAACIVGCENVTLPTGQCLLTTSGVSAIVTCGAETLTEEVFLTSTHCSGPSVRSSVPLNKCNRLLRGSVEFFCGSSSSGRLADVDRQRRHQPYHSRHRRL
#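 Purified cruzain at 1.5 nM, pre-incubated 15 min with compound at room temperature in 100 mM sodium acetate pH 5.5, 5 mM DTT, 0.00005% Triton X-100. Reaction started with 2 uM Z-FR-AMC; AMC fluorescence increase over 60 s gives rate.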
# Cruzain Triton = blocks cruzain activity in presence of Triton detergent; Potency, µM, without a hit: max response, negative = inhibition, actives largely listed as inhibitors; 0.43% of 200,000 active; purified cruzain, Z-FR-AMC fluorescence, 0.01% Triton; AID 1478;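 further: plate controls were neutral wells for no effect and buffer without enzyme for full effect; nearly all actives have a fitted effect of over 40% in size; top concentration of the series not given in the record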
#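 In this qHTS format, compounds are incubated with 1.5 nM cruzain for 15 min at room temperature before 2 uM Z-FR-AMC is added. Release of AMC is followed at 360/450 nm, and progress is taken as the 60 s fluorescence difference.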
# RE007 growth inh = less growth of the S. pombe RE007 Vpr strain; Potency, µM (titrated, usually from 92.2 µM), inactives show at the top dose activity change, negative = less growth; S. pombe RE007 Vpr strain, BacTiter-Glo ATP luminescence, 24 h; control for the full effect not named in the record; 0.21% of 360,000 active; AID 651644; active = well fitted falling curve with a large enough effect; inconclusive = small, poorly fitted or top-dose-only effect; inactive = no such curve, though single readings can be large or run the other way;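 further: on the % scale 0 is the no-effect control and ±100 the full control effect; nearly all actives have a fitted effect of over 50% in size; the assay follows cell death caused by Vpr and the record does not say whether a fall means rescue or toxicity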
#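 Fission yeast strain RE007, carrying one chromosomally integrated HIV-1 vpr copy, was seeded at OD 0.01 in PMG+AL medium with 23 nL pinned compound. After 24 h at 30 °C and 99% humidity, viability was read by BacTiter-Glo luminescence.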
# SARS PLpro yeast = blocks SARS-CoV papain-like protease in a yeast assay; S. cerevisiae expressing SARS-CoV PLpro, growth rescue; control for the full effect not named in the record; Potency, µM (titrated, usually from 32.9 µM), without a hit: at the top dose activity, positive = growth rescue; 0.19% of 330,000 active; AID 485353; active means well fitted rising curve with a large enough effect; inconclusive means small, poorly fitted or top-dose-only effect; inactive means no such curve, though single readings can be large or run the other way; further: 0% is about no effect; nearly all actives have a fitted effect of over 55% in size; growth read by luminescence after 48 h
# NS1 function inh = inhibitors of influenza NS1 protein function | S. cerevisiae slowed by influenza A NS1, growth recovery by OD600 | Potency, µM (series often up to 46.1 µM), inactives show at the highest dose activity, positive = more growth | 0.4% of 270,000 active | AID 2326; active means well fitted rising curve with a large enough effect; inconclusive means small, poorly fitted or top-dose-only effect; inactive means no such curve, though single readings can be large or run the other way; further: nearly all actives have a fitted effect of over 50% in size
#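 In this qHTS, NS1 from influenza A is expressed in budding yeast, where it slows growth. Cells are switched from glucose to 2% galactose medium (pH 6.0, -URA), treated with compound, and growth recovery is read at OD600.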
# Numbers without * were called inactive; ? = inconclusive; . = not tested or not shown; [ ] = remark or other dose. Unless noted, the call rests on the fitted dose curve; in most records, active means well fitted curve in the direction sought with a large enough effect; inconclusive means small, poorly fitted or top-dose-only effect, or another doubt; inactive means no such curve, though single readings can be large; an effect the other way counts as inactive or inconclusive. Potency means the concentration at half of the fitted maximal effect. Not a hit list; about 4.6% have a hit in one of these screens.
SMILES,MARV entry inh,Lassa entry inh,StopGo reporter,Cruzain inh noDet,Cruzain Triton,RE007 growth inh,SARS PLpro yeast,NS1 function inh
O=S(=O)(c1ccc2ccccc2c1)N1CCN(C2Cc3ccccc3C2)CC1,?,-11%,?,27%,-6.1%,12%,-29%,-2%
Cc1c(Cl)c([N+](=O)[O-])nn1Cc1ccc(C(=O)N/N=C\c2ccccn2)o1,-6%,5%,-18%,2%,-7.0%,5%,-16%,-7%
Cc1ccc(-c2c3c(=O)n(C)c(=O)n(C)c3c3c(-c4cccc(C)c4)nc4ccccc4n23)cc1,?,?,0%,0%,-0.2%,.,.,.
Cc1ccc(Nc2ncnc3c2cnn3C)cc1,.,.,36%[activator],.,.,2%,1%,-7%
Cc1ccc(OCC(=O)Nn2c(C)nc3ccccc3c2=O)c(C(C)C)c1,-3%,22%,.,?,11%,9%,-7%,4%
O=C(Nc1ccc(Cl)cc1)Nc1nnc(SCc2ccc(Cl)cc2)s1,.,.,?,7.9µM*,0.8%,-12%,-29%,1%
CCOC(=O)c1sc(=S)n(-c2ccccc2)c1N(C(C)=O)C(C)=O,19%[46.1 µM],-2%,-14%,.,.,4%,3%,.
COc1cc(OC)c(C(=O)OC(C)C(=O)Nc2cc(C(F)(F)F)ccc2Cl)cc1OC (stereo not given),?,?,?,?,-8.5%,-23%,4%,-10%
Cn1ccnc1C(=O)c1ccccc1Cl,8%[46.1 µM],14%,-6%,.,.,11%,0%,3%
CCN1CCN(c2nc3c(c(=O)[nH]c(=O)n3C)n2CCCc2ccccc2)CC1,-16%[46.1 µM],-1%,-8%,.,.,?,1%,-3%
Cc1sc(NC(=O)CN(C(=O)c2ccccc2F)C2CCCC2)c(C(N)=O)c1C,-35%[46.1 µM],?,?,.,.,14%,-1%,14%
O=C(NCCSc1c(-c2ccc(Cl)cc2)[nH]c2ccccc12)c1ccc(S(=O)(=O)N2CCOCC2)cc1,-28%[46.1 µM],?,0%,?,-1.5%,.,.,.
CC(C)C(=O)N1c2ncnn2C2(CCCCC2)[C@@H]2CCCC[C@@H]21,0%[46.1 µM],29%[46.1 µM],-27%,14%,-1.6%,.,.,.
COc1cc(C2CC(=O)c3c([nH]c(C(=O)OCCOC(C)C)c3C)C2)cc(OC)c1OC (stereo not given),?,?,11µM*,?,-2.2%,5%,-2%,-31%
O=C(c1cc(-c2ccc(Br)cc2)n[nH]1)N1CCN(C(=O)c2ccccc2Br)CC1,.,.,?,.,.,5%,4%,11%
O=C(C1CCCCC1)N1CCN=C1SCc1cccc([N+](=O)[O-])c1,?,-29%,?,.,.,-1%,-6%,.
CS(=O)(=O)c1ccc2nc(NC(=O)c3ccccc3)sc2c1,?,?,2%,.,.,-25%,-3%,2%
Cc1cc(NC(=O)c2cc(-c3ccc(C)s3)nc3ccccc23)no1,.,.,0%,-1%,-8.4%,-12%,-2%,6%
O=C1Nc2ccccc2C1(O)Cc1ccncc1 (stereo not given),?,1%,-5%,-3%,0.2%,2%,2%,1%
CCOC(=O)c1sc(N(Cc2ccccc2)C(=O)CSc2ncn[nH]2)nc1C,-7%,?,23%,?,-10%,29%,6%,-9%

# One compound at a time, from the list above:
# COc1cc(OC)c(C(=O)OC(C)C(=O)Nc2cc(C(F)(F)F)ccc2Cl)cc1OC (stereo not given) reads MARV entry inh = ?; Lassa entry inh = ?; StopGo reporter = ?; Cruzain inh noDet = ?; Cruzain Triton = -8.5%; RE007 growth inh = -23%; SARS PLpro yeast = 4%; NS1 function inh = -10%
# CCOC(=O)c1sc(=S)n(-c2ccccc2)c1N(C(C)=O)C(C)=O reads MARV entry inh = 19%[46.1 µM]; Lassa entry inh = -2%; StopGo reporter = -14%; Cruzain inh noDet = .; Cruzain Triton = .; RE007 growth inh = 4%; SARS PLpro yeast = 3%; NS1 function inh = .

# Remaining list, next part:
SMILES,MARV entry inh,Lassa entry inh,StopGo reporter,Cruzain inh noDet,Cruzain Triton,RE007 growth inh,SARS PLpro yeast,NS1 function inh
CC(=O)c1ccc(NS(=O)(=O)Cc2ccc(Cl)cc2)cc1,4%,6%,34%[activator],-2%,-0.5%,2%,0%,0%
O=S(=O)(c1ccc(=S)[nH]c1)N1CCOCC1,6%,1%,-25%,.,.,-7%,-36%,.
O=C1C2CCCN2C(c2ccc(F)cc2)N1c1nccs1 (stereo not given),0%,-5%,2%,1%,0.7%,?,2%,9%
Cc1ccc(-c2nc3n(n2)C(=O)CC(c2ccc(Cl)cc2)S3)cc1 (stereo not given),2%[46.1 µM],9%[46.1 µM],-2%,-9%,-3.9%,.,.,.
CN1CCN(C(=O)Nc2cccc3ccccc23)CC1,-1%,-12%[14.3 µM],-5%,-1%,-2.3%,-4%,-9%,12%
CC(/C=N/NC(=O)c1nn(C)c(C)c1Br)=C\c1ccccc1,-20%,?,15%,-7%,-7.6%,-15%,-14%,-50%
CC(=O)Nc1sc2c(c1C(c1ccccn1)N1CCCC1)CCCC2 (stereo not given),?,?,-10%,.,.,-3%,-4%,.
Cc1cc2c(c(=O)o1)C(CCC1CCCCC1)C(C#N)=C(N)O2 (stereo not given),2%[46.1 µM],-8%,-1%,.,.,-1%,-1%,-9%
Cn1c(=O)c2c(nc(NCCCN3CCOCC3)n2Cc2ccc(Cl)cc2)n(C)c1=O,-1%,-1%,-18%,2%,5.1%,0%,1%,?
Cc1nn(CCCC(=O)NCc2ccccc2)c(C)c1[N+](=O)[O-],-6%,-2%,-9%,-3%,-3.2%,-30%,7%,9%
C/C(=N/OC(=O)c1ccccc1Br)c1ccc(C)cc1,?,11%,15%,.,.,-6%,-28%,-132%
O=C(Nc1ccncc1)C1CC(=O)N(Cc2ccccc2)C1 (stereo not given),16%,7%,-4%,.,.,7%,.,.
CCNC(=S)NN(c1ccccc1)c1ccccc1,18%,-2%,-10%,-1%,-2.1%,-6%,14µM*,2%
Cc1cc(NC(=O)CCN2CCC(C)CC2)ccc1Br,.,.,-3%,.,.,-11%,2%,4%
COCCCNC(=O)C[C@H]1C[C@H](C(=O)N2CCCCC2)[C@@]2(CCc3ccccc3)c3[nH]c4cc(CCC(=O)N(C)C)ccc4c3CCN2C1=O,-7%,.,61%[activator],.,.,3%,2%,.
COc1ccc(C)cc1S(=O)(=O)N1CCC(C(=O)NC2CCCC2)CC1,0%,0%,-13%,.,.,-5%,-6%,10%
Cc1nn(-c2ccccc2)c(Cl)c1C(=O)OCC(=O)NCCc1ccccc1,11µM*,?,-7%,.,.,1%,-5%,-34%
Cc1ccccc1NC(=O)c1ccc(F)c(S(=O)(=O)NCC2CCCO2)c1 (stereo not given),.,.,30%,.,.,-10%,-5%,0%
C1CCCN(C2CCNCC2)CC1,?,?,1%,.,.,0%,-1%,2%
O=C(Nc1nc(-c2ccccn2)cs1)c1ccc(Cl)s1,.,.,-8%,?,-18%,-2%,?,-159%
Cc1cccnc1NC(=O)/C=C/c1ccc2c(c1)OCO2,-8%,-4%,-9%,12%,-4.6%,2%,6%,-7%
O=C(NN=Cc1ccc(F)cc1)C1CC1,-1%[46.1 µM],-2%[46.1 µM],3%,.,.,-5%,.,.
COCCn1c(SCc2csc(-c3ccccc3)n2)nc2ccccc21,?,3%,-16%,1%,-9.1%,?,-6%,-42%
Cc1ccc(NS(=O)(=O)c2cccc3cccnc23)c(Br)c1,-9%[46.1 µM],3%[46.1 µM],8%,.,.,-2%,-1%,3%
COc1cccc(C(=O)N2CCC3(CC2)OCCO3)c1,.,.,-9%,.,.,3%,0%,-3%
O=C(CSc1nnc2c3c4c(sc3ncn12)CCCC4)NCc1ccco1,-2%,?,-8%,-3%,4.3%,12%,-2%,-5%
CN(C(=O)Cc1c(C(=O)O)n(C)c2ccccc12)c1cccc(C(F)(F)F)c1,-1%,5%,-16%,.,.,-3%,-1%,4%
CC12CCC(C(=O)NNC(=O)c3ccccc3)(OC1=O)C2(C)C (stereo not given),.,.,0%,.,.,-15%,0%,2%
Cc1cccc(N2CCN(C(=O)c3cnn(-c4cccc(Cl)c4C)c3C3CCNCC3)CC2)c1C,.,?,-19%,7%,-1.6%,.,.,.
Cc1ccccc1N(CC(=O)N/N=C/c1ccc(F)cc1)C(=O)c1ccccc1,-23%,?,-21%,-6%,-12%,-5%,0%,0%
O=C(CNC(=O)c1cccc(Cl)c1)N/N=C/c1cccnc1,.,.,0%,.,.,-12%,1%,3%

# 12 structures already listed, sorted by SMILES length, highest first.
SMILES,MARV entry inh,Lassa entry inh,StopGo reporter,Cruzain inh noDet,Cruzain Triton,RE007 growth inh,SARS PLpro yeast,NS1 function inh
Cc1cccc(N2CCN(C(=O)c3cnn(-c4cccc(Cl)c4C)c3C3CCNCC3)CC2)c1C,.,?,-19%,7%,-1.6%,.,.,.
CN(C(=O)Cc1c(C(=O)O)n(C)c2ccccc12)c1cccc(C(F)(F)F)c1,-1%,5%,-16%,.,.,-3%,-1%,4%
Cc1ccccc1N(CC(=O)N/N=C/c1ccc(F)cc1)C(=O)c1ccccc1,-23%,?,-21%,-6%,-12%,-5%,0%,0%
Cc1ccccc1NC(=O)c1ccc(F)c(S(=O)(=O)NCC2CCCO2)c1 (stereo not given),.,.,30%,.,.,-10%,-5%,0%
COc1ccc(C)cc1S(=O)(=O)N1CCC(C(=O)NC2CCCC2)CC1,0%,0%,-13%,.,.,-5%,-6%,10%
CC12CCC(C(=O)NNC(=O)c3ccccc3)(OC1=O)C2(C)C (stereo not given),.,.,0%,.,.,-15%,0%,2%
Cc1ccc(NS(=O)(=O)c2cccc3cccnc23)c(Br)c1,-9%[46.1 µM],3%[46.1 µM],8%,.,.,-2%,-1%,3%
O=C(CNC(=O)c1cccc(Cl)c1)N/N=C/c1cccnc1,.,.,0%,.,.,-12%,1%,3%
Cc1cccnc1NC(=O)/C=C/c1ccc2c(c1)OCO2,-8%,-4%,-9%,12%,-4.6%,2%,6%,-7%
COc1cccc(C(=O)N2CCC3(CC2)OCCO3)c1,.,.,-9%,.,.,3%,0%,-3%
O=C(NN=Cc1ccc(F)cc1)C1CC1,-1%[46.1 µM],-2%[46.1 µM],3%,.,.,-5%,.,.
C1CCCN(C2CCNCC2)CC1,?,?,1%,.,.,0%,-1%,2%
